MLL AF4-AF9 inh: blocks AF4 peptide binding to human AF9; AlphaScreen, biotin-AF4 peptide binding to FLAG-AF9; AID 651704; 350,000 tested, 0.47% active; inhibition, % at 10 µM;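 active means every replicate reaching a set inhibition limit, whatever the replicate mean, cut at about 25% in these data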;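 further: 0% = plate neutral control median and 100% = total signal loss; the record names both 10 and 1 µM as test concentration; the first replicate is given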
Target sequence (P42568 whole entry, looked up): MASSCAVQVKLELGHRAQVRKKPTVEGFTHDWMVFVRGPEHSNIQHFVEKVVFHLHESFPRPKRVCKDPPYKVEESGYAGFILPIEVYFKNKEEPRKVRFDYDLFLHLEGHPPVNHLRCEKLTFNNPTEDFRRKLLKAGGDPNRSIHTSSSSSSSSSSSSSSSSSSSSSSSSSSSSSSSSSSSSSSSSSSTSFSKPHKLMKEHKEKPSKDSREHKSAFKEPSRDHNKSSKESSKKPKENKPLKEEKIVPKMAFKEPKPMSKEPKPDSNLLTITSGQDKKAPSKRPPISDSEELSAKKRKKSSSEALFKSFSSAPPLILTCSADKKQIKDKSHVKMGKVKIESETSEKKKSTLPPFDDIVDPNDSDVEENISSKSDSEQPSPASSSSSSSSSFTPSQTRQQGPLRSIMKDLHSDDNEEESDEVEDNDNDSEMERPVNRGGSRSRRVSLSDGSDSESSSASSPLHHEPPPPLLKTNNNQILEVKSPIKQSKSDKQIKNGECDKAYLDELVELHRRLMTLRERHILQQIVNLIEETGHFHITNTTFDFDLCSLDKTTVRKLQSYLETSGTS
Ecoli rRNA inh: inhibits bacterial ribosomal RNA function over humanized ribosomes | AID 720706 | E. coli WT GFP vs humanized-ribosome RFP mutants, fluorescence, 24 h; active compounds read low; DMSO median 0, no signal -100 | 350,000 tested, 1.6% active | GFP signal change (wild-type ribosome), % (test concentration not listed);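 active means significant combined selectivity score with lowered wild-type GFP, culture density cut under 30%, mutant RFP and density less affected; inactive means any of these conditions unmet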; further: one replicate is shown; some compounds called inactive have numbers as strong as hits
Ecoli rRNA inh OD600: recorded beside Ecoli rRNA inh, whose call it bears; OD600 change, %; measured here: OD600 growth;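 optical density of the mix in the first replicate; 0 = DMSO median and -100 = no signal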
Ecoli rRNA inh RFP: also measured in Ecoli rRNA inh; calls as there; RFP signal change, %; measured here: RFP humanized mutant strains;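 first replicate; 0 = DMSO median and -100 = no signal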
Starred values were filed as active, the others as inactive; & = joins results of further samples. Only part of the results is shown; count on the stated rates, not on these rows.

SMILES	MLL AF4-AF9 inh	Ecoli rRNA inh	Ecoli rRNA inh OD600	Ecoli rRNA inh RFP
COc1ccc(NC(=O)Nc2ccc3c(c2)C(=O)N([C@@H](C)CO)C[C@@H](C)[C@@H](CN(C)C(=O)Nc2cccc4ccccc24)OCCCC[C@H](C)O3)cc1	-1.1	-2	-3	-3.1
O=C(c1cccnc1)N1C[C@H]2[C@@H](c3ccccc31)[C@@H](CO)N2C(=O)Nc1ccccc1Cl	-0.7	2	5	2.8
CN1C(=O)c2cc(NC(=O)C3CCCC3)ccc2OC[C@H]2O[C@@H](CC(=O)NCC(F)(F)F)CC[C@H]21	-1.2	5	-1	0.0
C[C@@H]1CCCCO[C@@H](CN(C)Cc2ccc3c(c2)OCO3)[C@@H](C)CN([C@@H](C)CO)C(=O)c2cc(NC(=O)c3ccccc3)ccc2O1	2.6	1	-1	0.9
COCc1cn(CC[C@H]2CC[C@H](NC(=O)Cc3cccnc3)[C@H](CO)O2)nn1	-2.2	-2	-2	-2.1
CCCN(C)C[C@H]1Oc2cc(C#Cc3ccccc3)ccc2S(=O)(=O)N([C@@H](C)CO)C[C@H]1C	5.0	-7	-5	4.4
Cc1ccc(S(=O)(=O)Nc2ccc3c(c2)C(=O)N([C@H](C)CO)C[C@@H](C)[C@@H](CN(C)Cc2ccc(Cl)c(Cl)c2)O3)cc1	4.1	-5	-15	1.1
COC(=O)c1c(-c2ccc(OC)cc2)c2c(c3c4cc(OC)ccc4n(S(=O)(=O)c4ccc(C)cc4)c13)C(=O)N(C)C2	0.1	-4	7	2.1
O=C(C[C@H]1CC[C@@H]2[C@H](COC[C@H](O)CN2C(=O)c2ccncc2)O1)NC1Cc2ccccc2C1	-0.8	7	13	-2.3
CC(=O)N(C)C[C@H]1Oc2ncc(C#C[C@@H](C)O)cc2C(=O)N([C@@H](C)CO)C[C@@H]1C	-3.4	-2	4	-2.0
COc1ccc(CN(C)C[C@H]2Oc3ccc(NS(=O)(=O)c4ccc(Cl)cc4)cc3CC(=O)N([C@@H](C)CO)C[C@H]2C)cc1	-1.6	-46*	-37*	-1.4*
CN(C)C(=O)C[C@H]1CC[C@H](NC(=O)C2CCC2)[C@H](CO)O1	0.1	4	-3	0.1
CCCCN1C[C@H](c2ccc(Br)cc2)[C@@H](CC(=O)Nc2ccc(Br)cc2)C1=O	1.3	-11	-23	6.2
C[C@H](CO)N1C[C@H](C)[C@H](CN(C)C)Oc2cc(-c3ccncc3)ccc2S1(=O)=O	-1.3	-3	14	-3.7
O=C(N[C@H]1CC[C@H](CCNS(=O)(=O)c2ccccc2Cl)O[C@H]1CO)c1ccc(F)cc1	-2.4	-2	-7	-0.7
O=C(C1CC1)N1C[C@H]2[C@@H](c3ccccc31)[C@@H](CO)N2C(=O)c1cccc(F)c1	1.2	4	0	-5.0
COc1ccc(C(=O)Nc2ccc3c(c2)OC[C@H](C)N(C)C[C@@H](C)[C@H](OC)CN(C)C3=O)cc1	0.6	-5	0	-0.4
O=C(NCC1CC1)C1Cc2c(-c3ccc(Cl)cc3)ccnc2O1 (configuration not stated)	-2.0	-4	-46	-14
COC(=O)Cc1nnn2c1[C@@H](C)[C@@H](c1ccccc1Br)OC[C@H](C)C2	-3.8	-6	-1	7.2
C[C@H](CO)N1C[C@H](C)[C@@H](CN(C)Cc2ccc(-c3ccccc3)cc2)Oc2ccc(NC(=O)CCN3CCOCC3)cc2C1=O	6.4	-3	-1	19
COc1ccc(S(=O)(=O)Nc2ccc3c(c2)CC(=O)N([C@@H](C)CO)C[C@H](C)[C@H](CN(C)S(C)(=O)=O)O3)cc1	-2.6	2	1	-0.7
C[C@@H](NC(=O)C[C@@H]1CC[C@@H]2[C@H](COC[C@H](O)CN2C(=O)Nc2cccc(Cl)c2)O1)c1ccccc1	-3.2	-56	-76	-20
CN1C(=O)c2cc(NC(=O)C3CCCC3)ccc2OC[C@H]2O[C@@H](CC(=O)NCc3ccccc3F)CC[C@H]21	-2.0	-3	-8	-0.9
O=C(Nc1cc(F)ccc1F)N[C@@H]1CC[C@H](CCn2cc(C3CCCC3)nn2)O[C@H]1CO	-1.3	-2	-11	1.1
C[C@H](CO)N1C[C@H](C)[C@H](CN(C)C(=O)Nc2ccc3c(c2)OCO3)Oc2ccc(NC(=O)c3ccncc3)cc2C1=O	-2.5	4	8	0.8
Cc1cc(C)cc(Cn2cc(CN3CC(N4CCCCC4)CS3(=O)=O)nn2)c1 (configuration not stated)	-0.9	17	-1	5.8
FC(F)(F)c1cccc(-c2nc3ccccc3n2C(c2ccccc2)c2nc3ccccc3[nH]2)c1 (configuration not stated)	0.7	-47	-72	-15
CNC[C@@H]1Oc2cc(C#Cc3cccc(F)c3)ccc2S(=O)(=O)N([C@H](C)CO)C[C@H]1C	7.4	-1	2	8.3
O=C(C[C@H]1C=C[C@@H](NC(=O)c2ccccn2)[C@H](CO)O1)NCc1cccc(F)c1	-0.9	-1	1	1.6
O=C(C[C@H]1CC[C@@H]2[C@H](COC[C@H](O)CN2S(=O)(=O)c2ccc(Cl)cc2)O1)NCCN1CCCC1	-11	1	-3	-1.5
CC(C)NC(=O)Nc1ccc2c(c1)CC(=O)N([C@H](C)CO)C[C@H](C)[C@@H](CN(C)S(=O)(=O)c1ccc(Cl)cc1)O2	-1.7	0	-2	0.9
COC(=O)[C@@]12C[C@@H](CC(=O)N3CCCCC3)C(=O)N(CCc3ccc(OC)c(OC)c3)C1=CCC(C)(C)C2	0.3	-9	-4	0.4
CCOc1ccc(CCN2C(=O)C(=O)N([C@@H](CC(C)C)CN3CCC[C@H]3CN3C(=O)C(=O)NC[C@@H]3CC(C)C)C[C@@H]2CC(C)C)cc1	1.4	3	5	1.5
COc1ccc2c3c([nH]c2c1)[C@H](CO)N(C(=O)CN1CCOCC1)CC31CN(Cc2ccccc2)C1	7.7	6	11	-0.7
CCCNC(=O)c1cc2c(c(-c3cccc(-c4ccccc4F)c3)n1)[C@@H](CCO)N(C(=O)CC1CC1)C2	0.1	-8	-8	4.7
COc1ccccc1NC(=O)N1C[C@@H](O)COC[C@H]2O[C@H](CC(=O)NCCc3ccccc3)CC[C@@H]21	-12	-5	-11	-5.9
CN1C(=O)c2cc(NC(=O)c3ccc(F)cc3)ccc2OC[C@@H]2O[C@H](CC(=O)N3CCOCC3)CC[C@@H]21	1.5	-3	-3	-2.7
Cc1ccc(S(=O)(=O)NC(CCCNC(=O)OCc2ccccc2)C(=O)O)cc1 (configuration not stated)	-3.3	2	4	0.3
CC(C)NC(=O)Nc1ccc2c(c1)C(=O)N([C@@H](C)CO)C[C@@H](C)[C@H](CN(C)S(=O)(=O)c1cccs1)OCCCC[C@H](C)O2	1.3	-1	2	0.7
CCCNC(=O)N[C@H]1CC[C@@H](CC(=O)NC2CCC2)O[C@@H]1CO	1.3	3	2	-0.3
CC(C)NC(=O)N[C@@H]1CC[C@@H](CCN)O[C@@H]1CO	-1.0	1	10	-1.6
CC(C)c1cn(CC[C@@H]2CC[C@@H](NC(=O)C3CC3)[C@H](CO)O2)nn1	0.0	-1	-7	-2.2
COc1ccccc1-c1csc(C(C)(NC(C)=O)c2ccccc2)n1 (configuration not stated)	-0.1	4	-2	1.0
CC(C)NC(=O)Nc1ccc2c(c1)CC(=O)N([C@@H](C)CO)C[C@@H](C)[C@@H](CN(C)S(=O)(=O)c1ccc(Cl)cc1)O2	-2.1	-3	-8	1.1
CCCC#Cc1ccc2c(c1)O[C@H](CN(C)C(=O)c1ccccc1F)[C@@H](C)CN([C@H](C)CO)S2(=O)=O	-3.0	-8	-26	3.5
COC(=O)[C@@H](Cc1ccccc1)NC(=O)Cn1cc(C)c(=O)[nH]c1=O	-1.6	3	18	-3.5
Cc1ccc(S(=O)(=O)Nc2ccc3c(c2)C(=O)N([C@H](C)CO)C[C@H](C)[C@@H](CN(C)S(C)(=O)=O)O3)cc1	-2.5	1	14	2.0
CC(=O)NC(C)(c1ccccc1)c1nc(-c2csc3ccccc23)cs1 (configuration not stated)	0.6	-1	-46	15

As entered above.
Reading of C[C@H](CO)N1C[C@H](C)[C@H](CN(C)C(=O)Nc2ccc3c(c2)OCO3)Oc2ccc(NC(=O)c3ccncc3)cc2C1=O in Ecoli rRNA inh RFP: 0.8
Reading of FC(F)(F)c1cccc(-c2nc3ccccc3n2C(c2ccccc2)c2nc3ccccc3[nH]2)c1 (configuration not stated) in Ecoli rRNA inh OD600: -72
Reading of C[C@H](CO)N1C[C@H](C)[C@H](CN(C)C)Oc2cc(-c3ccncc3)ccc2S1(=O)=O in Ecoli rRNA inh RFP: -3.7
Reading of Cc1ccc(S(=O)(=O)NC(CCCNC(=O)OCc2ccccc2)C(=O)O)cc1 (configuration not stated) in MLL AF4-AF9 inh: -3.3

Sorted by molecular weight (rising): some entries from above.
SMILES	MLL AF4-AF9 inh	Ecoli rRNA inh	Ecoli rRNA inh OD600	Ecoli rRNA inh RFP
CCCNC(=O)N[C@H]1CC[C@@H](CC(=O)NC2CCC2)O[C@@H]1CO	1.3	3	2	-0.3
COC(=O)[C@@H](Cc1ccccc1)NC(=O)Cn1cc(C)c(=O)[nH]c1=O	-1.6	3	18	-3.5
CN1C(=O)c2cc(NC(=O)c3ccc(F)cc3)ccc2OC[C@@H]2O[C@H](CC(=O)N3CCOCC3)CC[C@@H]21	1.5	-3	-3	-2.7

The listing continues.
SMILES	MLL AF4-AF9 inh	Ecoli rRNA inh	Ecoli rRNA inh OD600	Ecoli rRNA inh RFP
C[C@@H]1CN([C@@H](C)CO)S(=O)(=O)c2ccc(-c3ccccc3)cc2O[C@@H]1CN(C)C(=O)C1CCCCC1	2.3	-19	-17	4.1
CC1(C(=O)Nc2ccc3ccccc3c2)CCC(=O)N1CC(F)(F)F (configuration not stated)	-0.3	-5	0	-5.3
COc1ccccc1NC(=O)N(C)C[C@H]1OCc2cnnn2CCCC(=O)N([C@@H](C)CO)C[C@@H]1C	-0.4	-3	2	-1.0
Cc1ccccc1-c1ccc(C2[C@H]3CNC[C@@H]2N3S(=O)(=O)c2ccc(F)cc2)cc1 (some centres not stated)	-2.6&-0.1	-8&-53	-35&-72	0.4&-6.3
COC(=O)[C@]12C[C@H](CC(=O)NCc3cccs3)C(=O)N(Cc3ccccc3)C1=C[C@H](C(C)C)O[C@@H]2C1CC1	1.6	-5	-34	-1.8
COc1ccc(C(=O)N2CCN(S(=O)(=O)c3ccc(Cl)cc3)CC2)cc1S(=O)(=O)N1CCOCC1	-2.1	-4	-2	0.9
O=C(C[C@@H]1C[C@@H]2c3cc(NC(=O)CC4CC4)ccc3O[C@@H]2[C@@H](CO)O1)NCc1ccc(-c2ccccc2)cc1	-1.0	-7	-6	2.4
CCCNC(=O)N1CC2(CN(S(=O)(=O)c3ccccc3)C2)c2c(n(C)c3cc(OC)ccc23)[C@H]1CO	-3.0	-2	-3	1.7
C[C@H](CO)N1C[C@H](C)[C@@H](CN(C)C(=O)Nc2cccc3ccccc23)Oc2c(NC(=O)C3CCOCC3)cccc2C1=O	-1.4	0	-1	0.0
CC(C)NC(=O)Nc1cccc2c1O[C@@H](CN(C)C(=O)Nc1ccc3c(c1)OCO3)[C@@H](C)CN([C@@H](C)CO)C2=O	-1.2	2	12	0.4
C[C@H]1CN([C@@H](C)CO)C(=O)Cc2cc(NC(=O)C3CC3)ccc2O[C@H]1CN(C)Cc1ccc(Cl)c(Cl)c1	-2.6	-2	-21	2.5
CCCNC(=O)[C@@H]1[C@@H](CO)[C@@H]2Cn3c(ccc(-c4cccc(OC)c4)c3=O)[C@H]1N2CC	-2.1	2	10	-2.0
CCC(c1nnnn1-c1ccc2c(c1)OCCO2)N1CCN(c2ccc(OC)cc2)CC1 (configuration not stated)	14	-23	-24	-2.9
COCCN1C(=O)CCC1(C)c1nnnn1-c1c(C)cccc1C (configuration not stated)	-1.1	-3	13	-5.6
O=C(C[C@@H]1CC[C@@H]2[C@H](COC[C@@H](O)CN2Cc2ccc3c(c2)OCO3)O1)N1CCOCC1	-0.6	2	2	0.2
CN(C)CCCNC(=O)C[C@H]1CC[C@@H]2[C@H](COC[C@@H](O)CN2CC2CCCC2)O1	-2.3	3	8	-2.7
CCCCCCCCN1C(=O)[C@@H](CC(=O)NCCC(C)C)C[C@@]2(C(=O)OC)C1=C[C@H](C(C)(C)C)O[C@@H]2C	-2.1	4	5	-1.7
C[C@@H]1CN([C@@H](C)CO)C(=O)c2cc(NC(=O)Cn3cnnn3)ccc2O[C@@H]1CN(C)S(=O)(=O)c1cccs1	-1.2	2	4	-2.5
CCCNC(=O)Nc1ccc2c(c1)C(=O)N(C)C[C@@H](OC)[C@H](C)CN(Cc1cncnc1)[C@@H](C)CO2	-3.3	3	1	-1.7
COc1ccccc1CN1C[C@@H](C)[C@H](OC)CN(C)C(=O)c2cc(NC(=O)Nc3ccccc3OC)ccc2OC[C@H]1C	5.0	-4	-4	5.8
C[C@H]1CN([C@@H](C)CO)C(=O)c2cc(C#CC3CC3)cnc2O[C@@H]1CN(C)C(=O)Nc1ccc(F)cc1	-2.3	-1	-8	-1.9
CO[C@@H]1CN(C)C(=O)c2cc(NC(=O)C3CCOCC3)ccc2OC[C@H](C)N(C)C[C@H]1C	-2.4	-3	-3	-0.1
C[C@H]1CN([C@@H](C)CO)S(=O)(=O)c2ccc(C#CC(C)(C)O)cc2O[C@H]1CN(C)C	-0.7	2	16	-1.0
C[C@H](CO)N1C[C@H](C)[C@H](CN(C)Cc2ccccn2)Oc2ncc(-c3ccc(C#N)cc3)cc2C1=O	-8.1	2	7	-1.9

Screening results from PubChem BioAssay.
